Screening results deposited in PubChem BioAssay by several laboratories.
Arbovirus anti – antivirals against arbovirus infection, primary screen, cell-based, full library, 10K replicate subset. arbovirus infection cell-based antiviral screen. inhibition, % at 10 µM. 0.37% of 200,000 active;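 active = inhibition from about 30%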;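 note: bluetongue infection of BSR cells; cell survival read as ATP light after 72 h; 0% = infected wells without compound and 100% = uninfected wells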
RecA intein inh – Mtb RecA intein splicing inhibitors, primary screen, biochemical, fluorescence, HTS. Protein RecA (Mycobacterium tuberculosis (strain ATCC 25618 / H37Rv)), P9WHJ3. cell-free RecA intein splicing. 0.75% of 290,000 active. inhibition, %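 (about 9 µM by stock and volumes)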; in the data active = inhibition above about 30%; inconclusive = no clear call, values can overlap the other calls;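 note: 0% = vehicle wells and 100% = reference inhibitor control wells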
Target sequence (P9WHJ3 whole entry, looked up): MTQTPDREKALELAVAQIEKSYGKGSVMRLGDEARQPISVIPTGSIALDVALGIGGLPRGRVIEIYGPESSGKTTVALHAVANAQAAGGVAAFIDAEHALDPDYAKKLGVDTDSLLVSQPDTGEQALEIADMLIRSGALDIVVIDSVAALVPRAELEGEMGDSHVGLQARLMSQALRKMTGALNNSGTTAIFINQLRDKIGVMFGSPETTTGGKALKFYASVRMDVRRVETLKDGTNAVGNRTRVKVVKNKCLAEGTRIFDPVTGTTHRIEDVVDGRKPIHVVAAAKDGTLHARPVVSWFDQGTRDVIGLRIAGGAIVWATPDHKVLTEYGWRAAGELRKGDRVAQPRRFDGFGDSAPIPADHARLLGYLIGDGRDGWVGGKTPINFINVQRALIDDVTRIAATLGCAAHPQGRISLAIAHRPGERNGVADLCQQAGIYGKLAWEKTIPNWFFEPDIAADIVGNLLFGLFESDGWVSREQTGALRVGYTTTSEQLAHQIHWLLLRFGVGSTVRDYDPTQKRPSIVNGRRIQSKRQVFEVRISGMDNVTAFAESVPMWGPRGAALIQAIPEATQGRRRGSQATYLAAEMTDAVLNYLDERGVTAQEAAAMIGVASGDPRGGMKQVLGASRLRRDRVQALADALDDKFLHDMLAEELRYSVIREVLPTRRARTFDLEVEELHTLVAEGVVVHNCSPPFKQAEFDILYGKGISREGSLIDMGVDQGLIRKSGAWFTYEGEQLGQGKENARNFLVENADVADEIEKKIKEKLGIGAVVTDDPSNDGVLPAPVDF
Mtb betalactam – beta-lactam sensitization of Mtb H37Rv, H37Rv | M. tuberculosis H37Rv growth with meropenem, percent inhibition; hits of this screen are not shown here | inhibition, % at 25 µM | 0.27% of 330,000 active;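 active = about 74% or more and at least 40 points above the plate without the antibiotic, then above 30% in a dose series; inconclusive = first-round hits that could not be retested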;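 note: growth measured after seven days incubation then overnight dye step; 0% = bacteria only wells and 100% = bacteria with antibiotic; twin plates without the antibiotic show which effects depend on it; some results filed as inactive read as strong as hits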
YopH PTP inh – YopH tyrosine phosphatase inhibitors, primary screen, biochemical, fluorescence Ex485/Em525; YopH tyrosine phosphatase [Yersinia enterocolitica]; inhibition, %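 (about 10 µM by stock and volumes)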; 0.16% of 140,000 active;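 active = inhibition of 50% or more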;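 note: controls were vehicle for no effect and minimum signal wells for full effect; inactives centre near -20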
Mtb growth – M. tuberculosis H37Rv growth inhibitors, H37Rv strain (AID 1626). inhibition, % at 10 µM, or IC50 in µM where a hit was titrated. M. tuberculosis H37Rv growth inhibition; higher % means a stronger effect. 0.95% of 220,000 active;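 active = confirmed in a dose series; inconclusive = inhibition above 80% but not taken into the dose series; inactive = below 80% or under 30% at every dose of the series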;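 note: bacteria incubated seven days before Alamar blue readout; 0% = bacteria only wells and 100% = bacteria with antibiotic wells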
Arbovirus anti repeat – second read-out of Arbovirus anti, no call of its own (marks repeat the call); inhibition, %; measured here: 10K subset replicate screen; many hits read low in the repeat;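 first of two repeat runs on a subset; 0% = infected and 100% = uninfected wells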
Numbers without * were called inactive; u = inconclusive; x = not tested or not shown. Not all compounds are listed (hit frequency here may not be typical).

Sample of the layout, 2 compounds:
SMILES	Arbovirus anti	RecA intein inh	Mtb betalactam	YopH PTP inh	Mtb growth	others
O=C(NCc1cc(C(F)(F)F)cc(C(F)(F)F)c1)C1CC(c2ccccc2F)=NO1 (stereo not drawn)	x	-4.0	-8.4	x	0.6%
O=c1[nH]c(-c2cccnc2)nc2sc(-c3ccccc3)cc12	-13.6	-26.5	7.3	x	6.5%

All compounds of this part, previewed entries included:
SMILES	Arbovirus anti	RecA intein inh	Mtb betalactam	YopH PTP inh	Mtb growth	others
O=C(NCc1cc(C(F)(F)F)cc(C(F)(F)F)c1)C1CC(c2ccccc2F)=NO1 (stereo not drawn)	x	-4.0	-8.4	x	0.6%
O=c1[nH]c(-c2cccnc2)nc2sc(-c3ccccc3)cc12	-13.6	-26.5	7.3	x	6.5%
CC(=O)N=c1c(C#N)cc2c(=O)n3ccccc3nc2n1CCCOC(C)C	x	-121.2	-0.3	x	-6.2%
COc1ccc(CCNC(=O)CN(CCc2ccccc2)S(C)(=O)=O)cc1OC	1.5	-1.2	-3.6	x	5.2%
COc1ccc(OC)c(CNC(=O)C2CCCN(S(=O)(=O)N3CCC(C)CC3)C2)c1 (stereo not drawn)	x	-0.8	2.0	x	x
Cc1cc(N2CCCC2=O)ccc1S(=O)(=O)NC1CCCCC1	x	1.2	0.2	x	x
CCCn1c(=N)c(S(=O)(=O)c2ccc(F)cc2)cc2c(=O)n3cccc(C)c3nc21	x	-303.7	-4.1	x	x
O=C(c1ccc(Cl)cc1)C1CCCN(Cc2cnn(-c3ccccc3)c2)C1 (stereo not drawn)	6.4	3.6	81.5	x	8.69µM*
COc1ccc(-c2noc(CN(C(=O)c3cccs3)C(C)C)n2)cc1	11.1	5.5	-3.4	-5.1	2.8%
NC(=O)CSc1nc2c(c(=O)n1-c1ccccc1)C1(CCCCC1)Cc1ccccc1-2	2.5	-6.1	-0.2	-8.1	4.8%
COC(=O)c1c(NC(=O)CSc2nc3ccccc3c(=O)n2-c2ccccc2)sc(C)c1C	-11.6	-0.8	30.8	-31.6	6.8%
CC(C)C(C(=O)NCc1ccco1)N(CC1CCCO1)C(=O)CNS(=O)(=O)c1ccccc1 (stereo not drawn)	4.7	-2.8	-4.2	x	1.1%
C=CC(c1ccccc1)C(C(=O)c1ccccc1)N(C)C (stereo not drawn)	-3.9	x	x	x	1.5%
Cc1cc(S(=O)(=O)Nc2ccc(C(=O)N3CC(C)OC(C)C3)cc2)ccc1F (stereo not drawn)	x	-5.6	-9.9	x	x
COc1ccc(C(=O)Nc2nc3ccccc3[nH]2)cc1	x	-3.1	85.8	x	x
CC(O)c1nc2c(c(=O)n(C)c(=O)n2C)n1C (stereo not drawn)	x	0.0	-1.8	x	14.3%
O=c1cc(-c2ccc(F)cc2)[nH][nH]1	-4.0	98.2*	5.1	-15.4	-1.8%
CCC(C(=O)OCC(=O)NC1CCS(=O)(=O)C1)c1ccccc1 (stereo not drawn)	x	0.0	-10.4	x	x
O=C(Nc1nc(-c2cccs2)cs1)c1ccco1	11.0	2.1	5.8	x	2.5%
CC(c1ccco1)N(C(=O)c1ccccc1NS(=O)(=O)c1cccc([N+](=O)[O-])c1)c1ccccn1 (stereo not drawn)	15.7	4.2	-1.9	-35.6	-7.3%

Next section; it opens with the two that closed the last part.
SMILES	Arbovirus anti	RecA intein inh	Mtb betalactam	YopH PTP inh	Mtb growth	others
O=C(Nc1nc(-c2cccs2)cs1)c1ccco1	11.0	2.1	5.8	x	2.5%
CC(c1ccco1)N(C(=O)c1ccccc1NS(=O)(=O)c1cccc([N+](=O)[O-])c1)c1ccccn1 (stereo not drawn)	15.7	4.2	-1.9	-35.6	-7.3%
CCOC(=O)N1CCC(NC(=O)c2ccc3c(c2)N=C(CC)c2ccccc2S3)CC1	x	6.7	3.8	x	x
C#CCOCCOCCOCCNc1nc(N2CCN(C(=O)[C@H]([C@@H](C)CC)n3cc([C@@H](N)CC(C)C)nn3)CC2)nc(N2CCN(C(=O)[C@H](Cc3cc4ccccc4[nH]3)n3cc([C@@H](N)C(C)CC)nn3)CC2)n1 (stereo partly drawn)	x	1.3	x	x	45.6%
Cc1cc(=O)[nH]c(SCc2ccc(Cl)cc2)n1	x	0.1	-6.0	x	x
Cc1ccc(-c2cc(C(=O)Nc3sc4c(c3C(=O)NCc3ccco3)CCC4)[nH]n2)c(O)c1	-4.6	-6.5	2.5	-44.5	-2.2%
O=C(c1ccccc1Sc1ccc([N+](=O)[O-])cc1)N1CCCCC1	-6.2	-0.5	-1.6	9.9	0.7%
O=C(O)c1ccc(NS(=O)(=O)c2cccc(S(=O)(=O)c3ccc(Cl)c(Cl)c3)c2)cc1	x	-0.4	-3.2	x	x
COc1cc2cc(C(=O)N3CCN(c4ccccc4OC)CC3)[nH]c2cc1OC	x	-2.7	1.3	x	x
CCCCc1nc(SCC(=O)Nc2nnc(C(C)C)s2)n[nH]1	x	1.9	-2.0	x	x
CC(C)(Oc1ccc(Cl)cc1)C(=O)NCCCn1ccnc1	1.5	2.1	-1.2	-48.9	4.2%
C=C(C)CNC(=S)Nc1sc2c(c1C(=O)OCC)CC(C)(C)OC2	-3.1	3.0	2.1	-22.7	6.7%
S=C(NCc1cccnc1)Nc1ccc(Cl)cc1	4.7	0.2	-11.1	-14.3	x
Cc1cc(NO)nc(-c2ccc(Br)cc2)n1	-26.9	-3.9	5.2	-29.4	-0.1%
CC1CC(C)CN(CC(=O)c2cccs2)C1 (stereo not drawn)	-1.0	-0.6	-7.9	x	-5.1%
C=CCNC(=O)c1cccc(Br)c1	-6.1	2.6	-16.4	3.7	4.1%
CC(CCc1ccccc1)NC(=O)c1ccc(NC(=O)c2cccc(Br)c2)cc1 (stereo not drawn)	-12.3	1.9	15.2	-29.7	-0.5%
CCOc1ccc(/C=C/c2[nH]c(=O)[nH]c(=O)c2[N+](=O)[O-])cc1	x	0.2	-2.4	x	x
O=C1CNC(=O)/C(=C/c2ccco2)N1	2.6	-4.4	4.1	x	-0.9%
CC1CC(C)(C)N(C(=O)CN2C(=O)c3ccccc3C2=O)c2ccccc21 (stereo not drawn)	4.0	8.3	-2.1	-20.9	-3.2%
O=C(CC1CCCCC1)N1CCC(c2nc(-c3ccc(S(=O)(=O)N4CCCC4)cc3)no2)CC1	4.8	0.7	20.1	-39.0	12.0%
Cc1nc(-c2ccc(S(=O)(=O)NCc3cccnc3)s2)cs1	x	-0.2	-4.7	x	6.4%
O=C(N/N=C/C=C/c1ccco1)c1cnccn1	x	7.5	-1.4	x	5.0%
COc1ccc(C)c(-n2c(=O)n(Cc3ccccc3)c(=O)c3[nH]cnc32)c1	x	2.6	-6.4	x	0.8%
O=C(COc1ccc(S(=O)(=O)N2CCCC2)cc1Cl)Nc1ccc2c(c1)OCO2	-10.4	-0.2	1.9	-13.7	-5.9%
N=c1ccn(Cc2ccc(Cl)cc2Cl)cc1	-11.6	1.1	-6.8	-14.4	0.3%
O=C(CSc1nnc(-c2ccccc2)c(-c2ccccc2)n1)N1CCc2ccccc21	-5.2	-2.0	-4.0	-38.6	3.3%
CC(C)CNC(=O)COC(=O)CCC(=O)c1ccc(Cl)cc1	1.0	7.6	4.9	x	-2.6%
CC(C)=CC(=O)Nc1ccc(S(=O)(=O)Nc2ccccn2)cc1	0.9	-2.6	-11.3	x	-1.2%
NS(=O)(=O)c1cccc(NC(=O)Cn2cnc3ccccc3c2=O)c1	2.7	0.1	-8.4	8.1	-4.4%
Cc1ccc(-n2nnnc2CS(=O)(=O)c2ccccc2)c(C)c1	x	3.0	4.2	x	x
COc1cc(Cl)c(S(=O)(=O)N2CCN(Cc3ccc4c(c3)OCO4)CC2)cc1Cl	-6.5	6.3	3.6	-29.1	-12.6%	Arbovirus anti repeat=-2.3
Cc1nc2cc(NC(=O)Nc3cccc4ccccc34)ccc2n1C	7.0	0.7	6.7	x	5.8%
CCSc1nsc(NC(=O)Nc2ccccc2OC)n1	x	7.9	-2.9	x	x
CC(OC(=O)Cc1n[nH]c(=O)c2ccccc12)C(=O)Nc1ccccc1[N+](=O)[O-] (stereo not drawn)	x	4.3	-9.3	x	x
O=C(C[n+]1ccc2ccccc2c1)Nc1cc(C(F)(F)F)ccc1Cl	8.9	4.8	4.9	-9.6	9.2%
CNC(=O)Oc1ccc(-c2cn3cc(C)ccc3n2)cc1	-28.3	0.8	7.9	-5.7	3.7%
Cc1ccccc1NC(=O)CC1S/C(=N/c2nccs2)N(C)C1=O (stereo not drawn)	2.9	3.7	-6.1	-13.2	15.8%
Cc1sc(C(=O)Nc2ccc3ccccc3c2)cc1CC(=O)O	5.9	1.4	-5.5	x	5.1%
Cc1ccc(C)c(NC(=S)NCC(c2cccnc2)N2CCOCC2)c1 (stereo not drawn)	-1.8	0.8	2.5	-21.1	-2.8%
CN1CCN(CCC(=O)Nc2ccc(C3CCCC3)cc2)CC1	-7.3	0.5	-1.6	x	3.8%
O=C(OCC#CCSc1nnc(-c2ccccc2)o1)c1cc2ccccc2o1	-1.6	6.4	98.7	-24.3	u
COc1ccc(Nc2nc(Cl)nc(NCCO)n2)cc1	-9.4	-0.4	5.5	-5.2	5.4%
OCCn1c(CSc2nnc(-c3ccco3)n2-c2ccccc2)nc2ccc(Cl)cc21	0.4	0.9	-11.5	-31.4	-0.6%
CN(Cc1ccco1)S(=O)(=O)c1csc(C(N)=O)c1	x	-0.5	3.1	x	x
Cc1cccc(NC(=O)Cn2cnc3ccccc3c2=O)c1C	-2.0	-0.6	-6.6	-9.3	1.6%
CCOc1nc(-c2ccc(OC)cc2)ccc1-c1noc(-c2cc(OC)c(OC)c(OC)c2)n1	-6.5	-6.3	-4.0	-35.0	-2.4%
CCN(c1ccc(OC)cc1)S(=O)(=O)c1nnc(NC(=O)c2ccco2)s1	x	-3.2	4.5	x	x
CCn1nc(C)c(CN2CCC(n3nccc3NC(=O)c3ccc4c(c3)OCO4)CC2)c1C	x	-2.7	-3.4	x	x
Cc1cc(S(=O)(=O)NCCN(C)C)c(C)s1	0.1	-3.3	-2.5	-20.7	-3.6%
Cc1ccc(S(=O)(=O)Nc2ccccc2CNC2CCCCC2)cc1	1.8	-1.5	0.0	x	2.4%
Cc1ccc(-c2c[nH]c(=S)n2-c2ccccc2F)cc1	15.5	1.8	4.2	x	-2.3%
COc1ccccc1NC(=O)NNC(=O)c1cc2ccccc2cc1O	x	-18.1	-15.0	x	x
Cc1ccc(-c2nc(S(=O)(=O)c3ccccc3)c(SCC(=O)NCC3CCCO3)o2)cc1 (stereo not drawn)	x	-1.1	-6.6	x	x
CCOC(=O)c1ccccc1NC(=O)/C(C)=C/C(=O)O	12.4	-1.7	6.8	-20.1	-4.0%
CCOC(=O)c1c(OCC)[nH]c2c1cc(O)c1ccccc12	-14.8	95.3*	24.1	-11.4	69.7%
c1ccc(CN2CCN(C(c3ccccc3)c3ccccc3)CC2)cc1	x	7.8	3.7	x	x
COc1ccc(Cc2nnc(NC(=O)c3cccc([N+](=O)[O-])c3)s2)cc1	-3.0	1.4	-0.6	-32.2	1.8%
CC1=C(n2ccnc2)CCC1=O	x	-1.1	-1.5	x	-3.7%
NC(=O)[C@@H]1CCCN1C(=O)c1ccc2oc(CCc3ccccc3)nc2c1	x	-0.1	0.9	x	x
COC(=O)c1cc(OC)c(OC)cc1NC(=O)c1ccccc1	-16.3	0.8	56.3	-44.4	7.5%
O=C(COC(=O)c1c(Cl)cccc1Cl)NCC1CCCO1 (stereo not drawn)	x	-0.8	-3.5	x	x
S=C(NCCc1ccccn1)Nc1ccc(Cl)c(Cl)c1	-2.6	-3.0	-4.0	-14.0	5.7%

Of the compounds above, these have a CF3 group.
SMILES	Arbovirus anti	RecA intein inh	Mtb betalactam	YopH PTP inh	Mtb growth	others
O=C(NCc1cc(C(F)(F)F)cc(C(F)(F)F)c1)C1CC(c2ccccc2F)=NO1 (stereo not drawn)	x	-4.0	-8.4	x	0.6%
O=C(C[n+]1ccc2ccccc2c1)Nc1cc(C(F)(F)F)ccc1Cl	8.9	4.8	4.9	-9.6	9.2%

Pulled one by one from above:
SMILES	Arbovirus anti	RecA intein inh	Mtb betalactam	YopH PTP inh	Mtb growth	others
COc1ccc(Nc2nc(Cl)nc(NCCO)n2)cc1	-9.4	-0.4	5.5	-5.2	5.4%
S=C(NCCc1ccccn1)Nc1ccc(Cl)c(Cl)c1	-2.6	-3.0	-4.0	-14.0	5.7%
CN(Cc1ccco1)S(=O)(=O)c1csc(C(N)=O)c1	x	-0.5	3.1	x	x
